Assay outcomes deposited in PubChem by National Center for Advancing Translational Sciences (NCATS).
HTT promoter inh: inhibitors of huntingtin promoter activity | HEK293 HTT promoter firefly luciferase reporter (activity 0% = vehicle and -100% = no light), 24 h | Potency, µM (series often up to 57.5 µM), for inactives: at the highest dose activity change, negative = inhibition, usual class: inhibitors | 48,000 tested, 0.93% active | AID 1508623; active = well fitted inhibition curve with a large enough effect; inconclusive = small, poorly fitted or top-dose-only effect; inactive = no such curve, though single readings can be large or run the other way; also: nearly all actives have a fitted effect of over 50% in size
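HEK293 Fluc reporter, 2,500 cells/well, 24 h pre-culture; cpds up to 57.5 uM final, 24 h 37 degrees C; Dual-Glo, 10 min RT; normalized vehicle = 0%, zero RLU = -100%.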
PMP22 txn: modulates PMP22 transcription in S16 Schwann cells. 43,000 tested, 2% active. Potency, µM (top dose mostly 57.5 µM), for the others: at the highest dose activity change, negative = inhibition, hits mostly inhibitors. S16 Pmp22-F2sN Schwann cells (luciferase reporters placed in the Pmp22 gene), FLuc/NLuc coincidence luminescence, 24 h; active = clear falling dose curves in both reporters; inconclusive = both reporters move, but less clearly or upward; inactive = either reporter flat; the % is the NLuc reporter signal; also: % is scaled to controls: 0 for no effect and ±100 for the full control effect; some results filed as inactive show a strong effect at the top dose
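Schwann cells carrying the coincidence reporter were exposed to library compounds for 24 h at 37C, then lysed and read for FLuc and, after quenching, NLuc luminescence on a CCD imager.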
* = called active by the depositor; ? = inconclusive; / = no result given; & = joins results of further samples; [ ] = another dose, or the depositor's remark. Potency is read from the fitted curve at half-maximal effect.

The opening 2 compounds as a preview:
SMILES	HTT promoter inh	PMP22 txn
COc1cccc(Cn2c(=O)cc(C)c3c(C)nn(-c4ccc(C)cc4)c32)c1	-2%	?
COc1ccccc1C(=O)NCc1ccc2c(c1)CCN2C(=O)c1ccncc1	-12%	-12%

All compounds of this part, from the first entry:
SMILES	HTT promoter inh	PMP22 txn
COc1cccc(Cn2c(=O)cc(C)c3c(C)nn(-c4ccc(C)cc4)c32)c1	-2%	?
COc1ccccc1C(=O)NCc1ccc2c(c1)CCN2C(=O)c1ccncc1	-12%	-12%
CCN(CC)c1ccc(NC(=O)CN(C)S(=O)(=O)c2cccc3nsnc23)c(C)c1	-24%	?
Cc1noc(NS(=O)(=O)c2ccc(N)cc2)c1C	4%&5%	/
Cc1ccc(OCC(=O)Nc2ccc(C(=O)OCc3cc(=O)n4nc(C5CC5)sc4n3)cc2)cc1	-13%	-2%
CCCN(C(=O)Cn1nc(Cc2ccncc2)c2ccccc2c1=O)c1ccccc1C	-22%	13µM*
CC(=O)c1cccc(NC(=O)c2oc(=O)c3ccccc3c2-c2ccccc2)c1	-21%	?
COCCCNC(=O)CCC(=O)N1Cc2ccccc2Oc2ncccc21	17%	-30%
CCc1ccc(C=C2SC(=S)NC2=O)cc1	30%	/
Cc1ccc(SCC(=O)Nc2cccc(-c3nc4cc(Cl)ccc4o3)c2C)cc1	0%	?
CCCCOc1ccc(OCCCN2CCOCC2)cc1	12%	/
COc1ccc(-n2c(SCC(=O)NCc3ccccc3)nc3c([nH]c4ccccc43)c2=O)cc1	-16%	?
O=C(Nc1nnc(S(=O)(=O)N2CCOCC2)s1)c1ccccc1Cl	-13%	?
CCN(CCCNC(=O)c1cc2c(=O)[nH]c3ccc(C)cc3c2s1)c1ccc(C)cc1	-19%	?
Cc1ccc(-c2cn3c(n2)sc2cc(C(=O)NC4CCCCC4)ccc23)cc1	-17%	?
CC(C)(C)OC(=O)N1CCC(c2c(C(=O)N3CCN(c4ncccn4)CC3)cnn2-c2cccc(F)c2)CC1	-3%	-24%
O=C(COc1ccccc1F)Nc1ccc2oc(-c3cccc(Cl)c3)nc2c1	21%	-2%
Cc1ccccc1CNC(=O)CCS(=O)(=O)c1cc2c3c(c1)CCN3C(=O)CC2	-3%	1%
CCC(C)(C)NS(=O)(=O)c1cc(-c2cc(C)no2)ccc1C	?	14%
COC(=O)c1sc(-c2ccccc2)cc1NC(=O)c1cccc(F)c1	13%	-8%
COc1ccc2[nH]cc(CCNC(=O)c3cnn(-c4ccc(C)cc4)c3C3CCN(C(=O)OC(C)(C)C)CC3)c2c1	?	?
COc1ccccc1-c1nc2c(c(SCC(=O)Nc3ccccc3F)n1)Cc1c(CO)cnc(C)c1O2	?	?
CCOC(=O)N1CCc2c(sc3c2c(=O)n(Cc2ccccc2)c(=O)n3CC(=O)Nc2c(C)cccc2C)C1	-15%	-2%
CCN1CCOC(=O)C1CC(=O)Nc1ccc(C)c(Cl)c1 (centres undefined)	-4%	?

4 structures from above, ordered by count of non-hydrogen atoms, falling:
SMILES	HTT promoter inh	PMP22 txn
CC(C)(C)OC(=O)N1CCC(c2c(C(=O)N3CCN(c4ncccn4)CC3)cnn2-c2cccc(F)c2)CC1	-3%	-24%
Cc1ccc(-c2cn3c(n2)sc2cc(C(=O)NC4CCCCC4)ccc23)cc1	-17%	?
COC(=O)c1sc(-c2ccccc2)cc1NC(=O)c1cccc(F)c1	13%	-8%
O=C(Nc1nnc(S(=O)(=O)N2CCOCC2)s1)c1ccccc1Cl	-13%	?

Carrying on.
SMILES	HTT promoter inh	PMP22 txn
CCN(c1ccccc1)S(=O)(=O)c1nnc(NC(=O)c2cccs2)s1	-24%	-5%
CCc1cccc(NC(=O)C(c2ccccc2)N2Cc3ccccc3C2=O)c1 (centres undefined)	-32%	-16%
COc1ccc(/C=C(\C#N)c2nc3ccccc3n2C)c(OC)c1	66%[activator]	-16%
CNC(=O)c1cc(Nc2nnc(-c3ccc(O)cc3)c3ccccc23)ccc1OC	-9%	-22%
O=C(NCc1cccc(Cl)c1)c1cc2ccc3cccnc3c2[nH]1	13%	0%
CC(C)CCN(Cc1ccco1)C(=O)Cn1ncc2c([nH]c3ccccc32)c1=O	-27%	-10%
O=C(NCc1ccc(F)cc1)c1ccc2c(O)c(S(=O)(=O)c3ccccc3)c(=O)[nH]c2c1	6%	-15%
CC(C)(C)C(=O)NCCc1csc2nc(-c3ccc(F)cc3)nn12	?	5%
O=C(Nc1ccc(C(=O)OCc2cc(=O)n3nc(C4CC4)sc3n2)cc1)c1ccc(F)cc1	-9%	1%
CCOc1ccc(Sc2cc(C(=O)NCCc3ccc(OC)c(OC)c3)c3ccccc3n2)cc1	?	?
COc1ccccc1CNC(=O)CCCn1nc(C)c2sc3ccccc3c2c1=O	8%	2%
O=C(c1ccc2c(c1)N(Cc1ccc(F)cc1)C(=O)c1ccccc1S2(=O)=O)N1CCN(c2ccccn2)CC1	?	16µM*
COc1ccccc1N1CCN(C(=O)c2cc(-c3ccc(C)c(F)c3)on2)CC1	3%	-10%
CCOc1cccc2cc(-c3nc4sc5c(c4c(=O)[nH]3)CCC(C(C)(C)C)C5)c(=O)oc12 (centres undefined)	-5%	-16%
CCN1CCN(C(=O)Cn2c(-c3cccs3)cc3cc(Cl)ccc32)CC1	?	?
CC(C)c1ccc(C(=O)CC2(O)C(=O)N(CCc3ccccc3)c3ccc(Cl)cc32)cc1 (centres undefined)	?	?
CC(=O)Nc1ccc(-n2cc3c(c2-c2ccc(C)cc2)c(=O)n(C)c(=O)n3C)cc1	-1%	-1%
CCOc1ccccc1/C=C/c1onc(C)c1S(=O)(=O)N1CCC(C(=O)N2CCCCC2)CC1	-12%	-17%
CN1CCN(C(=O)c2cnn(-c3ccccc3)c2C2CCN(C(=O)OC(C)(C)C)CC2)CC1	-12%	4%
COc1ccc(NC(=O)c2sc3nc(C)c(C(=O)Nc4ccc(Cl)cc4)c(-c4ccc(Br)cc4)c3c2N)cc1	-24%	1%
COc1ccc(C2=NC3(CCCCCC3)N(CC(=O)Nc3ccc(C)c(C)c3)C2=O)cc1	?	?
COC(=O)c1c(NC(=O)COc2cccc(C(F)(F)F)c2)sc2c1CCCC2	-5%[11.5 µM]	-3%
CC(NC(=O)CSc1n[nH]c(-c2ccccc2Cl)n1)c1nc2ccccc2n1C (centres undefined)	-8%	4%
Cc1ccc(S(=O)(=O)NCC2CCC(C(=O)NCCCOC(C)C)CC2)cc1 (centres undefined)	-13%	-8%

No new results follow: 7 of the compounds above.
SMILES	HTT promoter inh	PMP22 txn
CCOc1ccccc1/C=C/c1onc(C)c1S(=O)(=O)N1CCC(C(=O)N2CCCCC2)CC1	-12%	-17%
CN1CCN(C(=O)c2cnn(-c3ccccc3)c2C2CCN(C(=O)OC(C)(C)C)CC2)CC1	-12%	4%
COc1ccc(NC(=O)c2sc3nc(C)c(C(=O)Nc4ccc(Cl)cc4)c(-c4ccc(Br)cc4)c3c2N)cc1	-24%	1%
COc1ccc(C2=NC3(CCCCCC3)N(CC(=O)Nc3ccc(C)c(C)c3)C2=O)cc1	?	?
COC(=O)c1c(NC(=O)COc2cccc(C(F)(F)F)c2)sc2c1CCCC2	-5%[11.5 µM]	-3%
CC(NC(=O)CSc1n[nH]c(-c2ccccc2Cl)n1)c1nc2ccccc2n1C (centres undefined)	-8%	4%
Cc1ccc(S(=O)(=O)NCC2CCC(C(=O)NCCCOC(C)C)CC2)cc1 (centres undefined)	-13%	-8%

More results:
SMILES	HTT promoter inh	PMP22 txn
CCN(CC)C(=O)c1sc2c(c1C)c(=O)n(Cc1ccccc1)c(=O)n2CC(=O)Nc1ccc(OC)cc1	-20%	14%
O=C(COc1ccc(F)cc1)Nc1nnc(SCc2cc(=O)n3ccccc3n2)s1	11%	-4%
COc1cccc(N2CCN(C(=O)c3cc4c(s3)-c3ccccc3OC4)CC2)c1	-23%	-38%
COc1cccc(C(c2sc3nc(-c4ccco4)nn3c2O)N2CCC3(CC2)OCCO3)c1 (centres undefined)	0%	35%
Cc1cccc(NC(=O)C2CCN(S(=O)(=O)c3ccc4c(c3)CCCN4C(=O)C3CCC3)CC2)c1	?	?
O=C(Nc1cccc(C(=O)OCc2cc(=O)n3nc(C4CC4)sc3n2)c1)c1ccc(F)cc1	4%	1%
CCOc1ccc(NC(=O)c2nc3nc(C)cc(C(F)F)n3n2)cc1	-1%	-12%
O=C(CSC1=Nc2ccccc2C2=NC(CC(=O)NC3CCCCC3)C(=O)N12)Nc1ccc(F)cc1 (centres undefined)	?	-10%
Cc1nn2c(=O)cc(COC(=O)c3ccc(NC(=O)CCc4ccccc4)cc3)nc2s1	13%	?
CCSc1ncc(Cl)c(C(=O)Nc2sc(C(C)=O)c(C)c2C(=O)OC)n1	-8%	-14%
CCOC(=O)c1c(C)[nH]c(C)c1S(=O)(=O)N1CCC(C(=O)Nc2ccc(C)c(N(C)C)c2)CC1	-15%	27%
CCCN(C(=O)Cn1ncc2c(=O)oc3ccccc3c21)c1cccc(C)c1	-3%	3%
Cc1ccc(CNC(=O)Cn2c(=O)cc(C)c3c(C)nn(-c4cccc(F)c4)c32)cc1	3%	3%
CCC(=O)N1CCc2cc(S(=O)(=O)NC(C(=O)NCc3ccc(OC)cc3)C(C)C)ccc21 (centres undefined)	-16%	-10%
O=C(CCc1ccccc1)NCc1nc2cccnc2n1Cc1ccc(F)cc1	-9%	-9%
Cc1cc(Nc2ccc(C)c(Cl)c2)n2nc(-c3ccccc3)nc2n1	-2%	-6%
CCOC(=O)c1cc(-c2ccc(OC)cc2)n(CCC(=O)NCCc2ccc(OCC)c(OCC)c2)c1C	?	-19%
COc1cc(C=CC(=O)O)ccc1O	-4%	/
COc1ccccc1N1CCN(C(=O)CN2C(=O)COc3ccc(S(=O)(=O)N4CCC(C)CC4)cc32)CC1	-3%	-10%
COC(=O)c1cc(C)nc2c1c(=O)nc(SCc1ccccc1F)n2C1CC1	-24%	-22%
COC(=O)c1c(-c2cccs2)csc1NC(=O)COc1ccc(C(C)C)cc1	-14%	?
CCOc1ccc(C(=O)c2cn(CC(=O)Nc3ccc(F)cc3)c3cc4c(cc3c2=O)OCO4)cc1	-13%	-4%
O=C(NCc1ccc(F)cc1)c1ccc(CS(=O)Cc2ccc(Cl)cc2)o1 (centres undefined)	?	?
CCc1nnc(SCc2nc(-c3cccc(C)c3)oc2C)c2cc3sc(C)cc3n12	7%	-9%
Cc1cccc(-c2nc(Cn3c(SCc4cc(C)ccc4C)nc4ccncc43)c(C)o2)c1	-13%	?
COc1ccc2c(c1)-c1nc(NC(=O)c3cc(Cl)ccc3OC)sc1CC2	-5%	17µM*
CCOC(=O)c1ccc(CN(Cc2ccc(C)cc2)S(=O)(=O)c2ccc(F)c(C(=O)Nc3ccc(C)c(F)c3)c2)cc1	-23%	-7%
O=C(Cn1c(=O)c(CNc2ccccc2)cc2cc3c(cc21)OCCO3)Nc1ccccc1Cl	-27%	-17%
CCOC(=O)N1CCC(NC(=O)c2ccc3c(c2)N(Cc2ccccc2)C(=O)c2ccccc2S3=O)CC1 (centres undefined)	-16%	-3%
Cc1cc(C)cc(NC(=O)Cn2cc(C(=O)C3CCCCC3)c3ccccc32)c1	-28%	?
CC(C)C(=O)Nc1ccc2nc(SCCOc3ccccc3)sc2c1	10%	?
COC(=O)c1cc2sc(C)cc2n1Cc1ccccc1	-18%	0%
Cc1ccc(-n2c(=O)c3oc4ccccc4c3n(CC(=O)Nc3ccc(F)c(Cl)c3)c2=O)cc1C	-2%	18%
COc1cc(NS(=O)(=O)c2c(C(=O)N3CCCCC3)c(C)n(C)c2C)cc(OC)c1OC	2%	-9%
Cc1ccc(CNC(=O)CCCN2C(=O)c3cccnc3Oc3ccc(Cl)cc32)cc1	-20%	?
CC(C)Cn1c(=O)c2sccc2n2c(CCCC(=O)NCc3ccccc3Cl)nnc12	-13%	-13%
NC(=O)CSc1ncc2c(n1)-c1ccccc1N(Cc1cccc(F)c1)S2(=O)=O	-15%	13%
CCOC(=O)c1c(C)c(C(=O)NCc2ccc(OC)cc2)c(C)n1CC	-5%	-9%
COc1ccc(CNC(=O)CSCc2nc(-c3ccccc3F)oc2C)cc1	?	7%
COC(=O)c1ccccc1NC(=O)Nc1cccc(OCc2cc(=O)n3cccc(C)c3n2)c1	14%	-3%
Cc1ccc2nc3c(cc(C#N)c(=O)n3-c3nnc(SCc4ccc(F)cc4)s3)c(=O)n2c1	-9%	?
COc1ccc(-c2nc3ccc(NS(=O)(=O)c4ccccc4)cc3o2)cc1	-5%	-6%
CCOc1cccc(C2c3[nH]c4ccccc4c3CCN2C(=O)Cc2cccc(OCC)c2OCC)c1 (centres undefined)	-32%	-19%
CCCCOc1ccc(C(=O)N/C(=C\c2ccc(Br)cc2)C(=O)NC2CCCCC2)cc1	6%	-18%
COc1ccccc1C1c2c(-c3ccc(Cl)cc3)n[nH]c2C(=O)N1c1ccc(C)cc1 (centres undefined)	?	?
CCCCCNC(=O)CCCCCn1c(=O)[nH]c2ccsc2c1=O	5%	-1%
CCC(=O)Nc1ccc(Cl)c(-c2nc3ccccc3[nH]2)c1	12%	-27%
Cc1oc(-c2cccc(Br)c2)nc1CN1CCC(C(=O)NCc2ccccc2)CC1	-12%	2%
CN(Cc1ccccc1)C(=O)c1cn(C)c2ccc(S(=O)(=O)N3CCCCC3)cc2c1=O	-19%	-10%
